# CDC25B CDK2 inh = primary biochemical HTRF screen for blockers of M-phase inducer phosphatase 2 binding to CDK2/cyclin A; P30305+P24941; 94,000 compounds, 0.72% hits; AID 1259370, 2018; z-score (test concentration not listed); HTRF CDC25B-CDK2/CyclinA binding, anti-His/anti-Flag; stronger effect = higher value;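 further: score is relative to mean and SD of negative controls; strong numbers were not always called active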
# TAR Tat displ = TAR RNA-Tat peptide displacers, HIV-1, primary screen, biochemical, FRET, FAM/TAMRA-labeled Tat; z-score (no concentration beside the values); 100,000 compounds, 0.6% hits; HIV-1 TAR RNA, Tat peptide displacement FRET; stronger effect = higher value;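 further: score is relative to mean and SD of negative controls; some compounds called inactive have numbers as strong as hits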
# * = called active by the depositor; / = no result given.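 How the source made its calls: active means z-score from 3 up in half or more of its runs; inactive means the rest.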
SMILES,CDC25B CDK2 inh,TAR Tat displ
COc1ccc(NCc2cccn2-c2nnc(N3CCCC3)s2)c(OC)c1,/,-0.5
CC(=O)N1N=C(c2cccc(Br)c2)OC1c1ccccn1 (centres undefined),/,0.36
CN=C(N)NCCC[C@H](N)C(=O)O,-0.9,0.7
CC(=O)Oc1ccc2oc(C)c(C(=O)OC(C)C)c2c1,-1.58,-0.08
O=C(COc1ccc(Cl)cc1)NCC(c1cccs1)S(=O)(=O)c1cccs1 (centres undefined),/,1.62
O=C(Nc1cccnc1)C1CC(c2cccc(Br)c2)=NO1 (centres undefined),-0.95,-0.58
CCc1nn(CC(=O)NC2CCCCC2C)c(=O)c2cc3sc(C)cc3n12 (centres undefined),-1.67,0.71
COc1ccc(OC)c(-n2nnc(-c3nc(-c4ccc(Cl)cc4)no3)c2C)c1,/,0.69
O=C(Nc1nc2ccccc2s1)c1noc2c1CSc1ccccc1-2,-0.11,0.83
CCN(CC)CCCN(C)C(=O)c1nn(C)c2c1CSc1ccccc1-2,-2.38,2.1
N#Cc1cc2c(N)c(C(=O)Nc3ccccc3Oc3ccccc3)sc2nc1N,0.9,-1.26
COC(=O)c1sccc1NC(=O)c1noc2c1CCCC2,/,2.44
O=C(c1cc2c(s1)-c1ccccc1S(=O)(=O)C2)N1CCN(c2ccc(Cl)cc2)CC1,-1.93,0.38
COCC(C)NC(=O)CN1c2ccc(Br)cc2-c2ccccc2S1(=O)=O (centres undefined),-0.36,1.12
COc1ccc(-c2nn3c(C(C)(C)C)nnc3s2)cc1,-0.63,0.79
Cc1ccc(S(=O)(=O)NCc2nc(N)n(S(=O)(=O)c3ccc(C)cc3C)n2)c(C)c1,1.72,0.76
COc1ccc2cccc(CCNC(C)=O)c2c1,0.36,/
C=CCN1C(=O)C(O)(CC(=O)c2ccc(C)cc2)c2cc(Br)ccc21 (centres undefined),0.72,/
CCCCc1nc(SCC(=O)NC2CCCCC2)n[nH]1,1.72,-0.7
COCCOC(=O)c1c(C)oc2ccc(OC(=O)c3cccs3)cc12,-1.82,0.8

# Record cards, from the list above. Screens in order: CDC25B CDK2 inh	TAR Tat displ
# COc1ccc(-c2nn3c(C(C)(C)C)nnc3s2)cc1 across the screens: -0.63	0.79
# O=C(c1cc2c(s1)-c1ccccc1S(=O)(=O)C2)N1CCN(c2ccc(Cl)cc2)CC1 across the screens: -1.93	0.38
# N#Cc1cc2c(N)c(C(=O)Nc3ccccc3Oc3ccccc3)sc2nc1N across the screens: 0.9	-1.26
# COc1ccc(NCc2cccn2-c2nnc(N3CCCC3)s2)c(OC)c1 across the screens: /	-0.5
# COCC(C)NC(=O)CN1c2ccc(Br)cc2-c2ccccc2S1(=O)=O (centres undefined) across the screens: -0.36	1.12

# (more compounds)
SMILES,CDC25B CDK2 inh,TAR Tat displ
Cn1nccc1NC(=O)c1cccc2c1OC(C)(C)C2,-1.09,/
COc1ccc(C(=O)OCc2cc(=O)n3c4c(sc3n2)CCCC4)cc1,/,-0.19
O=c1cc(CSc2nc3ccccc3s2)nc2sc3c(n12)CCCC3,0.51,1.12
O=C(Nc1ccc2c(c1)OCCO2)NC(c1ccccc1)c1nnc(-c2ccccc2Cl)o1 (centres undefined),/,1.24
CCCCNC(=O)C1=C(C)C(=O)OC12CCCCC2,-0.2,0.58
COC(=O)c1cc(-c2ccc(S(=O)(=O)Nc3ccc(F)cc3F)s2)on1,/,-0.3
Cc1nc2nc(Cc3cccc(F)c3)nn2c(NCc2ccccc2)c1C,/,0.9
OCCOCCNc1ncnc2c1c(-c1ccccc1)cn2-c1ccc(F)cc1,-1.7,/
COC(=O)C1=C(C)NC2=C(C(=O)CC(C)(C)C2)C1c1ccccc1OC(C)C (centres undefined),-1.57,-0.58
COc1ccc(-c2noc(N(C)c3ccc(Br)cc3)n2)cc1,-4,-1.56
O=C(C1=C(O)C(=O)N(CC2CCCO2)C1c1cccs1)c1ccco1 (centres undefined),-0.62,/
COCCNC(=O)c1c[nH]c2ccc(S(=O)(=O)N3CCOCC3)cc2c1=O,/,1.89
Cc1cc(F)ccc1NS(=O)(=O)c1ccc(-c2ccc(=O)[nH]n2)o1,/,0.71
O=C1CCc2cc(S(=O)(=O)NC(Cc3ccccc3)C(=O)NCc3ccc(F)cc3)ccc2N1 (centres undefined),-1.7,/
CCOC(=O)C1=C(C)NC2=C(C(=O)CCC2)C1c1ccc(C)cc1 (centres undefined),-0.23,1.05
CC(C)Cc1nnc(NC(=O)CSc2nc(-c3ccccc3)nc3cc(=O)[nH]n23)s1,/,0.63
COc1ccccc1OC(C)C(=O)Oc1ccc(-n2cnnn2)cc1 (centres undefined),0.73,-0.07
Cc1cccc(NC(=O)C(CC(C)C)NC(=O)C2CCC(C)CC2)n1 (centres undefined),-0.6,0.63
O=C(C1CC(c2ccc(F)cc2)=NO1)N1CCN(C(c2ccccc2)c2ccccc2)CC1 (centres undefined),0.18,0.67
Cc1ccc(I)c(C(=O)O)c1,-0.95,/

# A few values from the entries so far.
# COc1ccccc1OC(C)C(=O)Oc1ccc(-n2cnnn2)cc1 (centres undefined) in CDC25B CDK2 inh is entered as 0.73
# COC(=O)c1cc(-c2ccc(S(=O)(=O)Nc3ccc(F)cc3F)s2)on1 in TAR Tat displ is entered as -0.3
# COc1ccc(C(=O)OCc2cc(=O)n3c4c(sc3n2)CCCC4)cc1 in TAR Tat displ is entered as -0.19
# CC(C)Cc1nnc(NC(=O)CSc2nc(-c3ccccc3)nc3cc(=O)[nH]n23)s1 in TAR Tat displ is entered as 0.63
# CCOC(=O)C1=C(C)NC2=C(C(=O)CCC2)C1c1ccc(C)cc1 (centres undefined) in TAR Tat displ is entered as 1.05
# COCCNC(=O)c1c[nH]c2ccc(S(=O)(=O)N3CCOCC3)cc2c1=O in TAR Tat displ is entered as 1.89

# Other records
SMILES,CDC25B CDK2 inh,TAR Tat displ
O=C(NCCSCc1ncc(C(F)(F)F)cc1Cl)c1ccccc1,-1.82,/
O=C1CCCC2=C1C(c1ccc(O)cc1)c1c(ccc3ccccc13)N2 (centres undefined),-1.03,-2.11
C=CCSC1=C(C#N)C(c2ccc(OC)c(OCc3ccccc3)c2)CC(=O)N1 (centres undefined),-1.46,-0.69
Cc1occc1-c1nnc(SCC(=O)N2CCCCC2C)o1 (centres undefined),-1,0.43
O=C(Nc1ccc(Br)cc1)c1cccn2c(-c3ccc(F)cc3)nnc12,/,1.39
CCC(CC)C(=O)Nc1ccc2nc(SCC(=O)N3CCOCC3)sc2c1,-0.38,0.95
Cc1ncc(-c2ccc(S(=O)(=O)Nc3c(C)cccc3C)cc2)o1,/,0.85
Cc1c(C(=O)NCC(c2ccco2)N2CCOCC2)oc2ccc(Cl)cc12 (centres undefined),0.68,0.77
COC(=O)C(C(C)=O)C1c2ccccc2Sc2ccccc21 (centres undefined),-0.38,/
CC(C)OCCCN[C@H]1CS(=O)(=O)C[C@@H]1S(=O)(=O)c1ccc(Cl)cc1,-1.92,-0.59
CCC1CCCCN1CCCNC(=O)CCCn1nc(C)n2c(cc3occc32)c1=O (centres undefined),-1.11,1.32
C=CCn1c2ccccc2c2nnc(SCCC)nc21,0.68,4.03
CN(C)/C=C/C(=O)c1csc(-c2ccccc2)n1,-0.64,/
CCOc1ccc2nc(NC(=O)Nc3ccc(F)cc3)sc2c1,0.99,1.09
Cn1c(=O)c2cnc(-c3ccccc3)nc2n(C)c1=O,-0.88,1.28
CCCCCCNc1c2c3c(cccc3n(C)c1=O)C(=O)c1ccccc1-2,-4.1,-10.3
N#Cc1c(Cl)cccc1NC1CCCCNC1=O (centres undefined),-1.75,/
COc1ccccc1C1SCCN1S(=O)(=O)c1ccc(Br)cc1 (centres undefined),0.66,-0.06
Cc1ccc(S(=O)(=O)NCC(c2ccc(N(C)C)cc2)N2CCc3ccccc32)cc1 (centres undefined),/,1.3
COc1ccc(OC)c(C(O)c2nc3ccccc3n2C(C)C)c1 (centres undefined),0.06,/
Cc1ccc(-c2cc(C(F)F)n3ncc(C(=O)NC4CCCC4)c3n2)cc1,-0.71,-0.42
CCCc1nn2c(=O)cc(COc3ccc(Cl)cc3)nc2s1,-2.46,-0.71
CCCCCCCCCCCCCCCCCCc1ccc(C(=O)/C=C/C(=O)O)cc1,0.15,/
CCN1CCN(c2ncc3c(n2)CCN(Cc2ccc(OC(C)C)c(OC)c2)C3)CC1,/,1.41
O=C1CCCN1c1ccc(S(=O)(=O)NCc2ccco2)cc1,/,0.96
Nc1nc2ncc(CNc3ccc(C(=O)N[C@@H](CCC(=O)O)C(=O)O)cc3)nc2c(=O)[nH]1,/,0.57
CCCC(CCC)C(=O)NCCc1cc2c(C)ccc(C)c2[nH]c1=O,-0.78,/
CC1=C(c2ccc(F)cc2)S(=O)(=O)N=C1N1CCN(c2ccccn2)CC1,/,-1.08
Cc1ccc2c(c1)C(Cc1nc3ccccc3c(=O)n1CCc1ccccc1)C(=O)N2C (centres undefined),0.42,2.85
CC(=O)NS(=O)(=O)c1ccc(NC(=O)/C=C/c2ccc(F)cc2)cc1,-1.58,/
CSC1=NCCN1S(=O)(=O)c1cc(Cl)c(Cl)cc1Cl,-2.78,/
Cn1ccc2cc(S(=O)(=O)N3CCCN(C(=O)NC4CCCCC4)CC3)ccc21,/,1.15
Cc1cc(C(=O)Nc2cc(C(=O)O)cc(C(=O)O)c2)ccc1[N+](=O)[O-],-4.18,/
O=C(Nc1ccc(Br)cc1F)c1cnn2c3c(cnc12)CCCCCC3,/,0.4
Cc1cc(C)c2c(n1)nn1c(C)c(CCC(=O)NC(C)c3cccs3)c(C)nc21 (centres undefined),-1.27,/
c1ccc2c(c1)ccc1ncccc12,0.46,/
Cc1ccc(NS(=O)(=O)c2cn(C)c(C)n2)c(Br)c1,/,0.49
O=C(NCc1ccc2c(c1)OCO2)c1ccc2c(=O)nc3c(-c4ccccc4)n[nH]n3c2c1,/,1.17
COc1cccc2c1Oc1nc(-c3ccc(Br)cc3)[nH]c(=O)c1C2,-0.14,0.47
Cc1c(C(=O)Nc2ccc3nsnc3c2)oc2ccc(Br)cc12,-2.05,1.28

# Two neighbouring records already listed, for reference:
SMILES,CDC25B CDK2 inh,TAR Tat displ
COc1cccc2c1Oc1nc(-c3ccc(Br)cc3)[nH]c(=O)c1C2,-0.14,0.47
Cc1c(C(=O)Nc2ccc3nsnc3c2)oc2ccc(Br)cc12,-2.05,1.28

# Going on with the list.
SMILES,CDC25B CDK2 inh,TAR Tat displ
O=C(Nc1ccc2c(c1)OCCO2)c1cc2ccccn2n1,/,0.52
COC(=O)c1ccc(C2Nc3c(C)cc(C)cc3-c3cc(C)nn32)cc1 (centres undefined),-0.5,1.23
CCOC(=O)NC(=S)N1CCSCC1,-1.34,/
CC(C)CC(=O)N(c1ccc(Cl)cc1)C1C=CS(=O)(=O)C1 (centres undefined),-3.13,-0.41
O=C(CN1C(=O)c2cccnc2Sc2ccccc21)N1CCOCC1,/,0.41
COc1cc(C2Oc3c(OC)cccc3C3CC(c4cccnc4)=NN32)cc(OC)c1OC (centres undefined),-1.27,/
O=c1cc(-c2ccccc2)oc2ccc(-c3nn[nH]n3)cc12,-1.12,/
O=C(COc1ccccc1Cl)Nc1ccc(OCc2cc(=O)n3ccsc3n2)cc1,-0.11,0.78
CCN(CC)C(=O)C(C)N1c2cccc3cccc(c23)S1(=O)=O (centres undefined),-0.82,1.52
O=C(Nc1ccccc1C(=O)NCc1c(F)cccc1Cl)c1ccccc1Cl,0.83,/
COc1cc(C2SCCS2)cc(Br)c1OC(=O)c1cccs1,-1.04,/
c1ccc2c(OCCCOc3cccc4cccnc34)cccc2c1,6.17*,/
CCOC(=O)C1=C(C)N=C2SCC(=O)N2C1c1ccc(O)cc1 (centres undefined),-0.35,0.56
O=C1C(Oc2ccc(Cl)cc2)C(c2ccc3c(c2)OCO3)N1CC1CCCO1 (centres undefined),0.18,-0.46
Cc1ccc(C(=O)Nc2sc3c(c2C(=O)N2CCCC2)CCC(C)C3)cc1 (centres undefined),0.51,0.43
O=C(CN1C(=O)CCCc2ccccc21)NC1CCCc2ccccc21 (centres undefined),/,1.57
Cc1ccc(S(=O)(=O)Cc2nc3scc(-c4ccccc4)c3c(=O)[nH]2)cc1,-0.99,0.38
Cc1c2c(=O)n(-c3ccccc3)[nH]c2cc(=O)n1Cc1cccnc1,1.97,1.2
CC1CCN(C(=O)Nc2ccc3nsnc3c2)CC1,1.64,1.9
COc1cccc(C2C(C#N)=C(N)Oc3n[nH]c(C(C)(C)C)c32)c1OC (centres undefined),-2.23,0.61

# Ordered by heavy-atom count (rising): three of the compounds above.
SMILES,CDC25B CDK2 inh,TAR Tat displ
O=C(Nc1ccc2c(c1)OCCO2)c1cc2ccccn2n1,/,0.52
COC(=O)c1ccc(C2Nc3c(C)cc(C)cc3-c3cc(C)nn32)cc1 (centres undefined),-0.5,1.23
COc1cc(C2Oc3c(OC)cccc3C3CC(c4cccnc4)=NN32)cc(OC)c1OC (centres undefined),-1.27,/

# (continued)
SMILES,CDC25B CDK2 inh,TAR Tat displ
O=C(NCCC1=CCCCC1)c1cnc2sc(N3CCOCC3)nn2c1=O,/,0.42
CCOC(=O)N1CCN(S(=O)(=O)N2CCCC(C(=O)NC(C)CC)C2)CC1 (centres undefined),/,0.96
COc1ccc(Nc2nc(NC3CCCC3)nc3c2cnn3C)cc1Cl,/,2.06
O=C1C=CC(=O)N1c1ccc(F)c(Cl)c1,-0.64,/
CC(=O)NCCSc1cc(C)c(Cl)cc1C,-0.71,/
CCN1C(=O)C2(c3ccccc31)c1c(oc3ccc(C)cc3c1=O)C(=O)N2CC1CCCO1 (centres undefined),-0.85,0.95
COc1ccc(OC)c(NC(=O)C(C)CS(=O)(=O)c2ccc3c(c2)NC(=O)C(C)S3)c1 (centres undefined),/,-0.35
COc1cc(-c2nc3cnccn3c2Nc2ccc(C(C)C)cc2)ccc1O,-0.04,/
COCC(C)NC(=O)c1cc2n(n1)C(C(F)(F)F)CC(c1ccco1)N2 (centres undefined),-0.73,-1.1
CCC(C(=O)Nc1c(C)nc2sccn2c1=O)c1ccccc1 (centres undefined),/,1.27
COc1ccc(O)c(C2=NN3C(C2)c2cccc(OC)c2OC3c2cccs2)c1 (centres undefined),-1.9,-2.34
O=S1(=O)C[C@H](NCc2ccncc2)[C@@H](S(=O)(=O)c2cccs2)C1,-1.06,0.85
